NS1 function inh: qHTS Assay for Inhibitors of Influenza NS1 Protein Function; S. cerevisiae slowed by influenza A NS1, growth recovery by OD600; Potency, µM (series often up to 46.1 µM), for the others: at the top dose activity, positive = more growth; 270,000 compounds, 0.4% hits; note: actives are rising curves; nearly all actives have a fitted effect of over 50% in size
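Growth recovery, yeast-based: influenza A NS1 expressed in S. cerevisiae causes slow growth, and suppressors are detected by OD600. The parent strain without NS1 is used as positive control.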
Cruzain Triton: qHTS Assay for Promiscuous and Specific Inhibitors of Cruzain (with detergent) | Cruzipain (Trypanosoma cruzi), P25779 | purified cruzain, Z-FR-AMC fluorescence, 0.01% Triton | Potency, µM, without a hit: max response, negative = inhibition, actives largely listed as inhibitors | 200,000 compounds, 0.43% hits; active = well fitted curve in the direction sought with a large enough effect; inconclusive = small, poorly fitted or top-dose-only effect, or another doubt; inactive = no such curve, though single readings can be large; an effect the other way counts as inactive or inconclusive;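 note: plate controls were neutral wells for no effect and buffer without enzyme for full effect; nearly all actives have a fitted effect of over 40% in size; top concentration of the series not given in the record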
Target sequence (P25779 123-467 limits assumed): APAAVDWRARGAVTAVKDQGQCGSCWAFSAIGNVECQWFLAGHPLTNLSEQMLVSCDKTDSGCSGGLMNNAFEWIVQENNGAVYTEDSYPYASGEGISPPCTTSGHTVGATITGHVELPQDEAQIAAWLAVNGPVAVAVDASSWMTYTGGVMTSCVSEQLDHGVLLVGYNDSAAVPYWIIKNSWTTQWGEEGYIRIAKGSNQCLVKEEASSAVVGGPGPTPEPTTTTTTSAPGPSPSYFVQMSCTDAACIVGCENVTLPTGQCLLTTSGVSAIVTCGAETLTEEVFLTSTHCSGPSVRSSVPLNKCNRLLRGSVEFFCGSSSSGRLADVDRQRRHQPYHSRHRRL
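In this qHTS format, compounds are incubated with 1.5 nM cruzain for 15 min at room temperature before 2 uM Z-FR-AMC is added. Release of AMC is followed at 360/450 nm, and progress is taken as the 60 s fluorescence difference.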
RE007 growth inh: qHTS Assay for Inhibitors of the HIV-1 protein Vpr; S. pombe RE007 Vpr strain, BacTiter-Glo ATP luminescence, 24 h; control for the full effect not named in the record; Potency, µM (series often up to 92.2 µM), for the others: top-dose activity change, negative = less growth; 360,000 compounds, 0.21% hits; active = well fitted falling curve with a large enough effect; inconclusive = small, poorly fitted or top-dose-only effect; inactive = no such curve, though single readings can be large or run the other way;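 note: % is set by controls: 0 for no effect and ±100 for the full control effect; nearly all actives have a fitted effect of over 50% in size; the assay follows cell death caused by Vpr and the record does not say whether a fall means rescue or toxicity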
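Fission yeast strain RE007, carrying one chromosomally integrated HIV-1 vpr copy, was seeded at OD 0.01 in PMG+AL medium with 23 nL pinned compound. After 24 h at 30 °C and 99% humidity, viability was read by BacTiter-Glo luminescence.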
2A StopGo: High Throughput Screening for Foot and Mouth Disease Virus Antivirals; human cells with a luciferase reporter of 2A StopGo recoding; control for the full effect not named in the record; Potency, µM (highest dose often 57.9 µM), inactives show at the top dose signal change, negative = less light; 410,000 compounds, 1.2% hits; active = well fitted falling curve with a large enough effect; inconclusive = small, poorly fitted or top-dose-only effect; inactive = no such curve, though single readings can be large or run the other way; tested in HEK293T cells; note: % is set by controls: 0 for no effect and ±100 for the full control effect; nearly all actives have a fitted effect of over 45% in size; luciferase light after 4 h
Cruzain noTriton: qHTS Assay for Promiscuous and Specific Inhibitors of Cruzain (without detergent) | Cruzipain (Trypanosoma cruzi), P25779 | purified cruzain, Z-FR-AMC fluorescence, no detergent | Potency, µM, without a hit: max response, negative = inhibition, most hits filed as inhibitors | 200,000 compounds, 2.3% hits; active = well fitted curve in the direction sought with a large enough effect; inconclusive = small, poorly fitted or top-dose-only effect, or another doubt; inactive = no such curve, though single readings can be large; an effect the other way counts as inactive or inconclusive;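 note: plate controls were enzyme without inhibitor for no effect and buffer without enzyme for full effect; nearly all actives have a fitted effect of over 40% in size; top concentration of the series not given in the record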
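Detergent-free condition (0.00005% Triton X-100) in acetate buffer pH 5.5 with DTT. 1.5 nM enzyme and compound were pre-mixed 15 min, then 2 uM Z-FR-AMC substrate added; reaction progress from fluorescence change between first and third reads (60 s).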
MARV entry inh: qHTS for inhibitors of binding or entry into cells for Marburg Virus; AID 540276, 2011; 300,000 compounds, 1.8% hits; Potency, µM (highest dose often 37.8 µM), for the others: at the top dose activity change, negative = inhibition, usual class: inhibitors; Marburg virus pseudotyped entry inhibition, cell reporter; control for the full effect not named in the record; about a third of the inactives were read at about 46 µM; active = well fitted inhibition curve with a large enough effect; inconclusive = small, poorly fitted or top-dose-only effect, or effect the other way; inactive = flat fitted curve, though single readings scatter; tested in HEK293 cells; about a fifth of its hits are not listed in these tables; note: % is set by controls: 0 for no effect and ±100 for the full control effect; luciferase read-out
SARS PLP yeast: qHTS of Yeast-based Assay for SARS-CoV PLP; AID 485353, 2010; 330,000 compounds, 0.19% hits; S. cerevisiae expressing SARS-CoV PLpro, growth rescue; control for the full effect not named in the record; Potency, µM (highest dose often 32.9 µM), without a hit: at the highest dose activity, positive = growth rescue; note: 0% is about no effect; nearly all actives have a fitted effect of over 55% in size; growth read by luminescence after 48 h
Lassa entry inh: qHTS for Inhibitors of binding or entry into cells for Lassa Virus; Lassa virus pseudotype entry inhibition, cell reporter; control for the full effect not named in the record; Potency, µM (titrated, usually from 37.9 µM), for the others: top-dose activity change, negative = inhibition, hits mostly inhibitors; 300,000 compounds, 1.2% hits; active means well fitted inhibition curve with a large enough effect; inconclusive means small, poorly fitted or top-dose-only effect, or effect the other way; inactive means flat fitted curve, though single readings scatter; tested in HEK293 cells; note: % is set by controls: 0 for no effect and ±100 for the full control effect; nearly all actives have a fitted effect of over 50% in size; luciferase read-out
Numbers without * were called inactive; ? = inconclusive; . = not tested or not shown; & = joins results of further samples; [ ] = another dose, or the depositor's remark. Unless noted, calls come from the whole dose curve; as a rule, active means well fitted rising curve with a large enough effect; inconclusive means small, poorly fitted or top-dose-only effect; inactive means no such curve, though single readings can be large or run the other way. Potency is the fitted concentration of half-maximal effect.

SMILES	NS1 function inh	Cruzain Triton	RE007 growth inh	2A StopGo	Cruzain noTriton	MARV entry inh	SARS PLP yeast	Lassa entry inh
Cc1c(C(=O)N2CCCCC2)c(S(=O)(=O)Nc2ccc(F)cc2F)c(C)n1C	0%	.	-7%	60%[activator]	.	-3%[46.1 µM]	-1%	-9%[46.1 µM]
CC1=C(C(=O)Nc2ccc(F)cc2)C(c2ccc(C)o2)C2=C(CC(C)(C)CC2=O)N1 (centres undefined)	7%	0.1%	-3%	29%	-3%	2%	1%	4%
COc1ccc(CCCc2n[nH]c(=S)n2C)cc1C	.	.	25%	-22%	.	-13%[46.1 µM]	4%	-18%[46.1 µM]
O=C(CSc1nc(-c2ccccc2)nc2c1Cc1ccccc1O2)N1CCCCC1	.	-1.9%	.	-24%	-1%	1%[46.1 µM]	.	-13%[46.1 µM]
CC(C)Sc1cc(N2CCOCC2)nc(-c2ccc(Cl)cc2)n1	3%	-6.6%	2%	-25%	-2%	-13%	2%	1%
Cc1ccc(NC(=S)N2CCN(S(C)(=O)=O)CC2)cc1	1%	.	13%	1%	.	-1%[46.1 µM]	10%	10%[46.1 µM]
CC(NC(=O)CN1C(=O)NC2(CCCCC2)C1=O)c1ccc(S(N)(=O)=O)cc1 (centres undefined)	.	.	-3%	2%	.	9%[46.1 µM]	.	8%
CC(=O)N1CCN(c2ccc(N=Cc3c(O)n(Cc4ccccc4)c(=O)[nH]c3=O)cc2)CC1	1%	-5.5%	23%	?	?	-30%&-30%	-9%	-20%
COc1ccc2cc(C(N)=O)c(=Nc3ccccc3)oc2c1	.	.	0%	-11%	.	27%[46.1 µM]	2%	?
O=c1[nH]c(CN(CCc2ccccc2)S(=O)(=O)c2ccc(Cl)cc2)nc2ccccc12	4%	-1.8%	9%	-17%	-6%	1%	-12%	2%
Cc1ccc(S(=O)(=O)NCCS(=O)(=O)N2CCN(c3ccccc3)CC2)cc1	5%	-5.8%	-6%	-15%&7%	-8%	.	-3%	-1%[46.1 µM]
O=C(CNC(=O)c1ccco1)OCc1ccc(Br)cc1	1%	.	15%	-11%	.	1%[46.1 µM]	19%	-11%[46.1 µM]
O=C(C1CC1)N1CCC(Oc2cccc(C(=O)N3CCCCC3CCO)c2)CC1 (centres undefined)	3%	.	-8%	13%	.	.	-2%	.
COc1ccc(CCNc2oc(-c3ccco3)nc2C#N)cc1	-84%	-20%	20%	.	-30%	-6%	-41%	-23%
COc1cccc(CN(C(=O)c2cccc(C)c2)C2CCS(=O)(=O)C2)c1 (centres undefined)	.	-0.8%	.	-6%	-3%	?	.	-4%[46.1 µM]
C/C(=N/N=C/c1ccccc1O)c1ccccc1O	-6%	.	-14%	10%	.	?	1%	20%[46.1 µM]
N#Cc1c(-c2ccccc2)nc2n1CCS2	2%	.	-20%	18%	.	19%[46.1 µM]	0%	.
Cc1ccc(-c2nnn3c2nc(NCCc2ccc(S(N)(=O)=O)cc2)c2ccccc23)cc1	?	-6.0%	0%	0%	?	?	-13%	-2%
COc1ccccc1CCNC(=O)c1ccoc1C	-54%	-1.0%	-6%	12%	-1%	17%	-11%	?
C=C1C(=O)OC2CC3(C)OC3CCC(C)=CC(OC(C)=O)C12 (centres undefined)	.	.	15%	35µM*	.	?	.	?
CCC(Sc1nc(N)c(NC(=O)c2ccc(OC)cc2)c(=O)[nH]1)C(=O)O (centres undefined)	.	.	-6%	-18%	.	17%[46.1 µM]	0%	-13%
O=C(Cn1c(=O)n(Cc2ccc(Cl)cc2)c(=O)c2cccnc21)Nc1ccccc1C(F)(F)F	.	-0.6%	.	-5%	-3%	5%[46.1 µM]	.	.
O=C1CC(CCC(=O)NC2CC2)c2ccccc2N1 (centres undefined)	3%	3.4%	2%	-6%	13%	20%	8%	8%
Cc1cc2n(n1)C(c1ccc(N(C)C)cc1)Nc1ccccc1-2 (centres undefined)	-31%	-6.1%	-1%	-28%	-2%	?	-9%	-18%
COc1cc(N)c(Br)cc1C(=O)O	.	.	2%	-7%	.	5%	-2%	?
Cc1cccc(C)c1NC(=O)N1CC=C(n2c(=O)[nH]c3ccccc32)CC1	-20%	0.8%	12%	-9%	0%	-11%	-5%	-21%
CCCCn1c(N)c(N(CCC(C)C)C(=O)C2CCCN(C(=O)c3ccc(Cl)cc3)C2)c(=O)[nH]c1=O (centres undefined)	.	.	-5%	-12%	.	-9%	0%	-8%
CN(C(=O)CSc1nnc(NCc2ccccc2)s1)C1CCS(=O)(=O)C1 (centres undefined)	.	.	7%	9%	.	19%[46.1 µM]	-1%	-4%
Cc1ccccc1OCc1nnc(SCC(=O)NCc2ccccc2)n1C	-15%	-1.8%	2%	-5%	5%	-24%	-1%	-20%
Cc1nc2ccccc2c2oc(C(=O)NC3CC3)cc12	-32%	4.9%	6%	-18%	-5%	.	13%	.
Cc1ccccc1N(C(=O)c1ccccn1)C(C(=O)NCc1ccccc1)c1ccncc1 (centres undefined)	-6%	.	48%	-14%	.	-1%[46.1 µM]	0%	23%
Cc1ccc(C(=O)NC(NCC2CCCO2)C(Cl)(Cl)Cl)cc1 (centres undefined)	-2%	-2.4%	-9%	-7%	-8%	-11%	3%	-28%
CCOC(=O)c1oc2ccccc2c1NC(=O)CN1CCN(C)CC1	4%	1.2%	-10%	-11%	-1%	?	9%	-9%
Cc1ccc(NC(=O)c2ccc3nc[nH]c3c2)cc1C	3%	-3.4%	.	41%[activator]	-1%	26%	9%	2%
O=C(NCC(=O)N1CCN(c2ccccc2O)CC1)c1ccco1	3%	.	-6%	10%	.	?	-1%	30%[46.1 µM]
O=C(O)c1c(Cl)c(Cl)c(Cl)c(Cl)c1C(=O)N1CCCCCC1	2%	.	9%	-1%	.	-15%[46.1 µM]	0%	-1%
Cc1ccc(NC(=O)C2CCC(CNS(=O)(=O)c3ccc4c(c3)CCCC(=O)N4)CC2)c(C)c1 (centres undefined)	.	0.0%	.	-1%	5%	.	.	-12%[46.1 µM]
Cc1nc2c(C)c(C)c(C)c(C)c2nc1C	3%	.	-11%	7%	.	0%[14.2 µM]	-1%	2%
O=C1Cc2ccccc2N1c1ccccc1	11%	-3.6%	-8%	-4%	10%	1%	1%	1%
COCc1[nH][nH]c(=O)c1C=Nc1ccc(F)cc1F	-14%	3.6%	10%	-3%	16%	?	2%	14%
C[N+]1(CCOC(=O)C2(c3ccccc3)CCCC2)CCCCC1	.	.	-3%	-8%	.	-5%[46.1 µM]	2%	.
Cc1ccc(C)c(COC(=O)c2cc([N+](=O)[O-])ccc2N2CCOCC2)c1	.	.	2%	-27%	.	?	2%	?
CCN(c1ccccc1)S(=O)(=O)c1cc(-c2onc(C)c2C)ccc1OC	.	-2.4%	.	4%	13%	.	.	-21%[46.1 µM]
Cc1cc(C)cc(N(CC(=O)Nc2cccc(C)c2C)S(=O)(=O)c2c(C)[nH]c(=O)[nH]c2=O)c1	-8%	0.2%	-11%	-3%&0%	9%	-28%&-28%[46.1 µM]	1%	-9%[46.1 µM]
CCc1ccccc1NC(=O)c1ccc(F)c(S(=O)(=O)N2CCC(C(N)=O)CC2)c1	4%	0.8%	1%	5%	7%	18%	-10%	17%[14.3 µM]
COCCN(C(=O)c1ccccc1)c1nc(-c2ccc(OC)cc2)cs1	10%	.	7%	15%	.	.	0%	.
O=C(/C=N/O)NCCCN1CCCCCC1	3%	-6.1%	-5%	.	-1%	9%	-2%	-5%
Cc1cccn2c(=O)c(/C=C(\C#N)c3nc4ccccc4n3C)c(Oc3ccc(Br)cc3)nc12	.	-1.1%	.	-20%	-4%	17%[46.1 µM]	.	-1%[46.1 µM]
NC(=O)NC(=O)COC(=O)c1sc2ccccc2c1Cl	0%	.	12%	-1%	.	.	0%	.
OCCC1CN(Cc2ccc3cc(Cl)ccc3n2)CCN1Cc1ccsc1 (centres undefined)	5%	.	-10%	?	.	?	0%	?
Cn1c(CO)cnc1SCc1ccc([N+](=O)[O-])cc1	3%	-2.3%	-24%	-13%	-6%	-27%	1%	7%
COc1ccc(Cl)c2sc(N3CCN(C(=O)C4=COCCO4)CC3)nc12	.	.	1%	?	.	15%	-1%	-14%[46.1 µM]
Cc1nc2n[nH]c(N)c2c2c1COC(C)(C)C2	8%	1.2%	13%	-21%	4%	13%	-10%	13%
CCOC(=O)C1CCCN(c2c(C(=O)c3ccccc3)cnc3ccc(F)cc23)C1 (centres undefined)	.	-4.6%	.	0%	-5%	?	.	.
O=C(Nc1nc(-c2ccccn2)cs1)C1CCCC1	.	.	-6%	39%[activator]	.	8%[46.1 µM]	26%	27%
COc1ccc(C(=O)NNC(=O)c2ccccc2[N+](=O)[O-])cc1Br	22%	-4.1%	-4%	2%	-4%	-19%	-4%	?
Cc1c(Cl)cccc1Nc1nn2c(=O)c3ccccc3nc2s1	.	1.0%	.	23%	-5%	.	.	8%[46.1 µM]

High-throughput results deposited in PubChem by National Center for Advancing Translational Sciences (NCATS).
